Assay outcomes deposited in PubChem BioAssay by National Center for Advancing Translational Sciences (NCATS).
VACV mCherry inh – qHTS for Stage-Specific Inhibitors of Vaccinia Orthopoxvirus: mCherry Reporter Primary qHTS | hit rate 0.63% among 310,000 | AID 720579, 2013 | Vaccinia virus mCherry reporter infection, fluorescence; about a quarter of the inactives have no number | Potency, µM (titrated, usually from 36.5 µM), for the others: top-dose activity change, negative = inhibition, usual class: inhibitors; active = well fitted inhibition curve with a large enough effect; inconclusive = small, poorly fitted or top-dose-only effect; inactive = no such curve, though single readings can be large or run the other way; tested in A549 cells; note: nearly all actives have a fitted effect of over 35% in size; inactives centre near -10
VACV Venus inh – qHTS for Stage-Specific Inhibitors of Vaccinia Orthopoxvirus: Venus Reporter Primary qHTS; hit rate 0.46% among 330,000; Potency, µM (doses to about 36.5 µM), inactives show top-dose activity change, negative = inhibition, most hits filed as inhibitors; Vaccinia virus Venus reporter expression, fluorescence; active means well fitted inhibition curve with a large enough effect; inconclusive means small, poorly fitted or top-dose-only effect; inactive means no such curve, though single readings can be large or run the other way; tested in A549 cells; note: nearly all actives have a fitted effect of over 30% in size; inactives centre near -10
* = called active by the depositor; i = inactive; u = inconclusive; x = no result given; & = joins results of further samples; [ ] = another dose, or the depositor's remark. % is set by controls: 0 for no effect and ±100 for the full control effect; potency is the fitted concentration of half-maximal effect. This is a random part of the collection, and some 0.82% of all compounds hit somewhere here.

mol	VACV mCherry inh	VACV Venus inh
CCc1ccccc1NC(=O)c1cc(-c2ccc(Cl)s2)nc2ccccc12	-16%	-18%
Cc1nc(NC(=O)c2ccccc2[N+](=O)[O-])sc1C(=O)N(C)C	-18%	-8%
N#Cc1c[nH]n2c(NC3CCCC3)c(-c3ccc(Br)cc3)nc12	-18%	-26%
CCN(CC)CC#CCC(O)(c1ccccc1)C1CCCCC1 (stereo not given)	-16%	-8%
CCOc1ccc(NC(=O)c2c(NC(=O)c3cccs3)sc3c2CCC(C(C)(C)C)C3)cc1 (stereo not given)	i	-14%
O=C(COc1ccc2c(c1)OCO2)Nc1nncs1	-13%	1%
Cc1nc(C(=O)NCC(=O)c2ccc(Cl)cc2)c(C(F)(F)F)o1	i	-12%
CC(=O)OC1CCC2(C)C(CCC3C2CC(=NO)C2(C)C(C(C)OC(C)=O)CCC32)C1 (stereo not given)	u	-27%
CCCCn1nnnc1C(c1ccccc1)N1CCN(C(=O)c2ccco2)CC1 (stereo not given)	41%[activator]	2%
Cn1c(=O)c2c(nc(Cl)n2CC(=O)NC2(C#N)CCCCC2)n(C)c1=O	-8%	-2%
COc1ccc(N2CC(C(=O)NCCS(=O)(=O)N3CCN(c4ccccc4)CC3)CC2=O)cc1 (stereo not given)	-14%&-13%	-11%&-12%
COc1ccc(S(=O)(=O)Nc2cccc(C(C)=O)c2)cc1Br	-1%	-27%
C/C(=N/NC(=O)c1nnn(-c2nonc2N)c1-c1ccccc1)c1ccncc1	-18%	u
O=C1[C@H]2[C@@H](c3ccc(Cl)cc3)N3C(=O)N(c4cccc(F)c4)C(=O)[C@@]3(Cc3ccccc3)[C@H]2C(=O)N1C1CCCCC1	-13%	-20%
CC1CN(C(=O)COC(=O)c2ccc(N)c([N+](=O)[O-])c2)CC(C)O1 (stereo not given)	-13%	-11%
O=C(Nc1ccc(Cl)c(S(=O)(=O)N2CCOCC2)c1)c1cc2ccccc2oc1=O	-1%	-1%
O=C(O)c1ccc(Cn2cnc3cccnc32)cc1	12%	15%
CN1C(=O)C(C)(C)c2cc(S(=O)(=O)N3CCCC3C(=O)NCc3ccccc3Cl)ccc21 (stereo not given)	-9%	1%
CCN(CC)c1ccc(NC(=O)CCc2c(C)nc3ncnn3c2C)c(C)c1	-11%	-9%
CCC(C(=O)O/N=C(\N)c1cccc(C)c1)c1ccccc1 (stereo not given)	u	-16%
C#CCNC(=O)C1=C[C@@H](C2CC2)C[C@@H](OCc2ccc(CO)cc2)O1	-15%	6%
CCN(CC)C(=S)SCC(=O)Nc1ccc(S(N)(=O)=O)cc1	-30%	-19%
CCOP(=O)(OCC)C(C#N)=C1SCN(c2ccccc2)CS1	u	u
Cc1ccc(NC(=O)C(Cc2ccccc2)NS(=O)(=O)c2ccc3c(c2)c(=O)n(C)c(=O)n3C)c(C)c1 (stereo not given)	-10%	1%
CCCOC(=O)C1=C(C)NC2=C(C(=O)CC(C)(C)C2)C1c1cccnc1 (stereo not given)	i	-3%
O=C(C1=C[C@H](c2ccc3c(c2)OCO3)C[C@H](OCc2ccc(CO)cc2)O1)N1CCOCC1	i	-9%
O=C(OC1CCCCC1)c1cc2ccccc2oc1=O	0%	-11%
Cc1ccc(C(=O)C(C)OC(=O)Cc2n[nH]c(=O)c3ccccc23)cc1 (stereo not given)	-7%	-17%
CC(NC(=O)c1ccco1)c1ccc(-n2ccnc2)cc1 (stereo not given)	-4%	-2%
Nc1nc2c(nc(N3CCCCC3)n2[C@@H]2O[C@H](CO)[C@@H](O)[C@H]2O)c(=O)[nH]1	-26%	-11%
CCOc1nc(NC(=O)NS(=O)(=O)Oc2ccccc2Cl)nc(-c2ccccc2)n1	0%	4%
COC(=O)/C=C1/SC(=NC(=O)c2ccc(Cl)cc2)NC1=O	i	-12%
Clc1cccc(N2CCN(c3nc4ccccc4c4nc(-c5cccnc5)nn34)CC2)c1	-8%	4%
COc1ccc(CN2C[C@@H](CO)O[C@@H](n3cnc4c(NCc5cc(OC)c(OC)c(OC)c5)ncnc43)C2)cc1	-2%	-10%
COC(=O)C(C(=O)N1CCN(C)CC1)C1CCCCCC1 (stereo not given)	x	-2%
CCc1nc2c(OCc3ccc(C(=O)OC)cc3)cccn2c1N(C)C(=O)C(C)C	i	-10%
O=[N+]([O-])c1ccc(CSC2=NCCS2)cc1	-16%	-12%
O=C(C[C@H]1C/C=C\C[C@@H](Cc2ccc(F)cc2)C(=O)OC[C@H]2CCCN2C1=O)N[C@@H](CO)Cc1ccccc1	-20%	u
COc1ccc(N2CCN(C(=O)c3ccc(C)cc3Cl)CC2)cc1	-24%	-11%
Cc1cc(/C([O-])=C(/C(=S)Nc2ccccc2)[n+]2ccccc2)c(C)n1-c1ccccc1	-29%	-13%
OCC1(Cc2cccc(Cl)c2)CCCN(Cc2ccc(F)c(F)c2)C1 (stereo not given)	-20%	-12%
Cc1nn(CC2CC2)c(=O)n1-c1ccc(Cl)cc1	i	-9%
Nc1ccc(Oc2ccc3nc(-c4ccccc4)c(-c4ccccc4)nc3c2)cc1	x	1%
CCn1ccnc1CN1CCc2c([nH]c3ccccc23)C1C1CCCCC1 (stereo not given)	-3%	6%
Cc1ccc(C)c(N2CCN(C(=O)C3CCN(c4nnc(N5CCCC5=O)s4)CC3)CC2)c1	x	-19%
Cn1c2c(c(=O)[nH]c1=O)C(c1cccc(O)c1)C1=C(N2)c2ccccc2C1=O (stereo not given)	u	-24%
CCc1nc2c(OCc3ccccc3)cccn2c1N(C)C(=O)c1ccc(OC)cc1	-14%	-1%
CCNC(=O)/C(=C/c1ccc2c(c1)OCO2)NC(=O)c1ccc(Br)cc1	-11%	-6%

Reformatted with values under each structure: entries from further up.
Fields: VACV mCherry inh | VACV Venus inh
> COc1ccc(N2CCN(C(=O)c3ccc(C)cc3Cl)CC2)cc1
→ -24% | -11%
> Cc1cc(/C([O-])=C(/C(=S)Nc2ccccc2)[n+]2ccccc2)c(C)n1-c1ccccc1
→ -29% | -13%
> OCC1(Cc2cccc(Cl)c2)CCCN(Cc2ccc(F)c(F)c2)C1 (stereo not given)
→ -20% | -12%
> Cc1nn(CC2CC2)c(=O)n1-c1ccc(Cl)cc1
→ i | -9%
> Nc1ccc(Oc2ccc3nc(-c4ccccc4)c(-c4ccccc4)nc3c2)cc1
→ x | 1%
> CCn1ccnc1CN1CCc2c([nH]c3ccccc23)C1C1CCCCC1 (stereo not given)
→ -3% | 6%
> Cc1ccc(C)c(N2CCN(C(=O)C3CCN(c4nnc(N5CCCC5=O)s4)CC3)CC2)c1
→ x | -19%

(more compounds)
mol	VACV mCherry inh	VACV Venus inh
C/C(=N\O)c1ccc(Cl)cc1Cl	-14%	-7%
CCCc1cc(C(=O)NCCc2ccccc2)no1	i	5%
O=C(Nc1ccc2c(c1)OCO2)N1CCC(CO)(CC2CCCCO2)CC1 (stereo not given)	-15%	-3%
COc1ccc2nc(NN=C(C)c3ccccn3)cc(C)c2c1	1µM*	u
COc1ccc(S(=O)(=O)n2cccc2)c(OC)c1	-14%	-14%
CCc1ccc(CNC(=O)c2ccc(OC3CCN(C(=O)COC)CC3)cc2)nc1	0%	-14%
Nc1ccc(CCCC(=O)NCc2cccnc2)cc1	i	-25%
COc1ccc(NC(=O)Cn2cccc2)cc1Cl	i	-15%
O=[N+]([O-])c1ccccc1Oc1ccccc1Cl	-14%	4%
CSc1nc2sc3c(c2c(=O)n1-c1ccc(C)c(Cl)c1)CCN(C(C)=O)C3	-4%	-2%
O=S1(=O)CC(N2CCCC2)CN1CCc1ccccc1 (stereo not given)	20%	3%
Nc1nc(-c2ccccc2)c(-c2ccccc2)s1	-11%	-8%
CCCN(CC(=O)Nc1ccc(Cl)cc1Cl)C(=O)c1ccc(=O)[nH]c1	-6%	-12%
CC(=O)c1ccc(NC(=O)CO/N=C(\C)c2cccs2)cc1	-19%	-11%
Cc1ccc(S(=O)(=O)NC(C)(C)CSc2nnc(N)s2)cc1	x	-16%
CCS(=O)(=O)N1CCC2(CC1)OCCN2S(=O)(=O)c1ccc(C)cc1	-6%	-7%
O=C(NNS(=O)(=O)c1ccccc1)c1cccs1	-11%	-10%
COc1cc(/C=N/NC(=S)Nc2cccnc2)cc(OC)c1O	-6%	-9%
O=C(Nc1cccc(F)c1)c1ccc(S(=O)(=O)N2CCCC2)cc1	-14%	-21%
O=C(COc1cccc2c1CCNC2=O)Nc1cccc(C(F)(F)F)c1	-18%	-6%
Cc1c(C(=O)N2CCN(S(=O)(=O)c3ccc(F)cc3)CC2)oc2ccccc12	-19%	-13%
COC(=O)[C@@]12C[C@@H](CC(=O)NCc3ccccc3)C(=O)N(CCc3ccc(OC)c(OC)c3)C1=CCC(C)(C)C2	-1%	-9%
CCOC(=O)c1[nH]c2c(c1Cc1ccccc1OC)C(=O)CC(c1ccccc1)C2 (stereo not given)	i	-14%
COC(=O)c1c[nH]c(=S)n1Cc1ccccc1	i	-1%
Cc1ccccc1OCCSc1nnc(-c2cccnc2)n1N	u	-23%
CCOC(=O)CS(=O)(=O)c1nc(-c2ccc(F)cc2)cc(C(F)(F)F)n1	x	10µM*
NC(=O)NCc1cccnc1	-2%	-5%
CCC(C)c1ccc(OCC(=O)Nc2ccc3[nH]c(=O)[nH]c3c2)cc1 (stereo not given)	-18%	-6%
O=C(CN1C(=O)C2(SCC(=O)N2c2ccc(F)cc2)c2ccccc21)NCCc1ccccc1 (stereo not given)	-12%	-9%
CCCCNC(=O)COC(=O)CCC(=O)c1ccc(F)cc1	i	-10%
O=C(Cc1ccc(Cl)cc1)Nc1cccc(S(=O)(=O)Nc2ccccc2F)c1	-7%	-6%
Cc1cccc(-n2c(O)c(C=NCCCN3CCOCC3)c(=O)[nH]c2=O)c1C	x	-7%
Cc1ccc(Cl)cc1-n1ncc2c(NCCc3ccccc3)ncnc21	-11%	-10%
COc1ccc(S(=O)(=O)Nc2ccc3c(c2)[C@H]2C[C@H](CC(=O)NCC4CC4)O[C@@H](CO)[C@H]2O3)cc1	-8%	-8%
CCOc1ccccc1-n1nnnc1SCC(=O)NC(=O)Cc1ccccc1	-9%	-3%
OC(c1ccc(F)cc1)c1ncc(-c2cccc3ccccc23)[nH]1 (stereo not given)	-8%	-6%
CC(O)(c1ccc(F)c(F)c1)c1nc(-c2cc(F)cc(F)c2)cs1 (stereo not given)	-13%	-7%
Cc1nc(CS(=O)(=O)c2ccccn2)sc1C(=O)NNC(=O)c1ccc(Cl)cc1	-13%	-14%
Cc1cc(NC(=O)Cc2ccccc2)no1	-17%	-13%
O=C(c1ccc(F)cc1)N(NC(=O)C(O)(c1ccccc1)c1ccccc1)c1ccccc1	u	9%
Cc1ccc(S(=O)(=O)N/N=C/c2ccc(O)c(O)c2)cc1[N+](=O)[O-]	u	-13%
CCOC(=O)c1c(N)sn(-c2ccccc2C)c1=S	-7%	3%
O=C(CN1C(=O)CSC1=O)Nc1ccc(N2CCOCC2)cc1	-10%	5%
Cc1cc(C(=O)Nc2ncn[nH]2)ccc1[N+](=O)[O-]	i	1%
CN(c1ccc(C(=O)NCC2CCCO2)cc1)S(C)(=O)=O (stereo not given)	-9%	-14%
COc1cc(C(=O)Nc2sc(C(=O)N3CCOCC3)c(C)c2C#N)cc(OC)c1OC	0%	3%
O=c1oc2ccc(C#CC3(O)CCCCC3)cc2cc1-n1cc(-c2ccccn2)nn1	i	-9%
COC1=CC(=O)[C@@]2([C@@H]1O)[C@@H](Cl)C[C@]13C(OC)=C(OC)C(=O)C[C@]21CCN3C	-18%	-5%
CSCCC1NC(=O)N(CC(=O)N2N=C(c3ccc(Cl)cc3)CC2c2ccco2)C1=O (stereo not given)	u	u
O=C(Cc1ccccc1)N1CCN(C2CCCC2)CC1	u	0%
O=C(CN1CCN(Cc2ccc(Cl)cc2)C1=O)N1CCC2(CC1)OCCO2	x	2%
CO[C@H]1O[C@@H]2O[C@@]3(C)CC[C@@H]4[C@@H](C)CC[C@@H]([C@H]1C)[C@@]24OO3	-17%	-8%
COc1ccc2[nH]c3c(=O)n(CCN4CCOCC4)cnc3c2c1	-1%	-11%
CCc1cccc(NC(=O)CSc2nc3ccccc3nc2N2CCCCC2)c1	-18%[7.34 µM]	3%[7.34 µM]
CC(=O)N1c2ccc(S(=O)(=O)NCC3CCC(C(=O)NCc4ccc(C)o4)CC3)cc2CC1C (stereo not given)	-7%	-9%
Cc1ccc(N2CC(C(=O)Nc3c4c(nn3C(C)(C)C)CS(=O)(=O)C4)CC2=O)cc1C (stereo not given)	-21%	-10%
CCc1ccc(S(=O)(=O)N2CCN(c3ccc(Cl)c(Cl)c3)CC2)cc1	-13%	-9%
CCn1cc(C(=O)NC(C)CCc2ccccc2)c(=O)c2cc(S(=O)(=O)N(C)C)ccc21 (stereo not given)	i	-20%
CCOc1cc(-c2c(C)c(C)nc(N)c2C#N)ccc1O	x	-26%
Cc1c(CCC(=O)O)c(=O)oc2c(C)c(OCc3cc4c(cc3Cl)OCO4)ccc12	-2%	1%
